Source: PubChem (several laboratories)
INS promoter inh – TRM-6 insulin promoter activity inhibition. inhibition, % at 2 µM. 130,000 compounds, 0.9% hits. TRM-6 cells (human fetal islet line), insulin promoter-eGFP reporter, imaging; reporter expression induced with tamoxifen;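 active means inhibition above the mean plus 3 SD, with well images judged a real hit on visual review, cut at about 60% in these data, passing the limit was not always enough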
PKD1 kinase inh – PKD1 (human) kinase inhibition | Q15139 | inhibition, %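 (about 10 µM by stock and volumes)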 | 200,000 compounds, 0.056% hits | AID 797 | PKD1 kinase fluorescence polarization assay;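 active means inhibition of 50% or more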;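 further: controls were vehicle for no effect and a reference inhibitor for full effect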
Target sequence (Q15139 whole entry, looked up): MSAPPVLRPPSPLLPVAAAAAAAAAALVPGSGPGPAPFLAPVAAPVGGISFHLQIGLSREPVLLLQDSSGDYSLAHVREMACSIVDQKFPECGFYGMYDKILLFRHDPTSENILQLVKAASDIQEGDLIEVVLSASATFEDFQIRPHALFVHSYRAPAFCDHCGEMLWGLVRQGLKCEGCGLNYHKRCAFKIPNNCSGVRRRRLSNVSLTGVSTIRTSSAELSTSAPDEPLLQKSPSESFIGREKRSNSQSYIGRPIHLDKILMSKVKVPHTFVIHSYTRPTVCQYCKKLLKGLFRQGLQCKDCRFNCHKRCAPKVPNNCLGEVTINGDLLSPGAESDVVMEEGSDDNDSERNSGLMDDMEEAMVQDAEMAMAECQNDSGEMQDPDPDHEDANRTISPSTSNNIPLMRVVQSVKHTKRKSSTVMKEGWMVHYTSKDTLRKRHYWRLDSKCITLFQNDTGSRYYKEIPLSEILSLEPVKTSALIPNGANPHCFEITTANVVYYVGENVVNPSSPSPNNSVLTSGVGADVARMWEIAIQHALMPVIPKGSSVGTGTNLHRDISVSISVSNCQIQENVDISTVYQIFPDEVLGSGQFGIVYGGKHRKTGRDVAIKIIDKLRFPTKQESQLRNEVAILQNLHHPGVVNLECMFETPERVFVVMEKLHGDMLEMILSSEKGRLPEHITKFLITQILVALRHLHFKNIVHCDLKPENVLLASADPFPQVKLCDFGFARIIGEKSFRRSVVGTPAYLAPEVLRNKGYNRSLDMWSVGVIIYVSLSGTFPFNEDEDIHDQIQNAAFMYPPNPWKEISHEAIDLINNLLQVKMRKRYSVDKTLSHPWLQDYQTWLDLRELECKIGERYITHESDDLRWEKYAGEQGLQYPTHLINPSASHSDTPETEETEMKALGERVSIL
RGS16-Gao HTS – modulates binding between human RGS16 and Galphao; O15492+P09471; 220,000 compounds, 0.38% hits; binding response (% of control), % at 10 µM; bead-based flow cytometry RGS16-Galphao binding, fluorescence; actives lie on both sides;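 active means below 25% or above 175%, edge rows of some plates excepted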;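 further: Galphao activated by GDP with aluminum fluoride before binding; 100% = wells without compound and 0% = beads without RGS; some results beyond the cut were filed as inactive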
HSV replic up – increases HSV replication in cells | HSV replication augmentation in cells, fold increase | maximum fold increase | 220,000 compounds, 0.005% hits;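 active means peak rise of 1.5-fold or more in the series; tested in PC3 cells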;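 further: first round at 10 µM; read as green reporter fluorescence; hits show the peak of a series up to 25 µM; 1 = signal of infected wells without compound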
GALR2 ag – GALR2 (human) receptor agonism. O43603. GALR2-expressing cells, agonist activation read-out. activation, %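 (tested at 5 µM)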. 140,000 compounds, 0.48% hits. AID 803;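 active means above mean plus 3 SD of all compounds, about 5% in these data, not always enough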;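 further: 0% = vehicle buffer wells and 100% = reference agonist at full effect; tested in CHO reporter cells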
INS promoter inh cell count – recorded beside INS promoter inh, whose call it bears; normalized cell count, %; measured here: cell count, toxicity; reference of the scale not given here;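 cells exposed to compound for 48 h; stained nuclei by imaging scaled within each plate; lower means fewer cells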
HSV replic up primary fold – recorded beside HSV replic up, whose call it bears; fold increase; compound at 10 µM; measured here: primary screen fold increase 10 uM; tested in PC3 cells;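 GFP signal in the first replicate; 1 = infected wells without compound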
* marks the source's active call; other numbers are inactive results; i = inactive; . = not tested or not shown.

Preview (4 entries):
SMILES	INS promoter inh	INS promoter inh cell count	PKD1 kinase inh	RGS16-Gao HTS	HSV replic up	HSV replic up primary fold	GALR2 ag
Cc1ccc(/C=C/C(=O)N2CCCN(C(=O)/C=C/c3ccc(C)cc3)CC2)cc1	.	.	6.1	108.8	i	0.97	-1.8
Cc1ccc(Nc2nc3c(c(=O)[nH]2)CCCC3)cc1	18.8	67.8	-6.0	106.9	i	1.05	-1.4
CCN(CC)CCn1c(NC(=O)c2ccc(Cl)cc2)nc2ccccc21	73.3	69.5	-5.0	101.1	i	0.81	-1.2
O=C(c1ccc(Cl)cc1)c1ccccc1C(=O)N1CCOCC1	0.0	138.5	-2.2	100.4	i	0.9	-2.2

Main list, from the start:
SMILES	INS promoter inh	INS promoter inh cell count	PKD1 kinase inh	RGS16-Gao HTS	HSV replic up	HSV replic up primary fold	GALR2 ag
Cc1ccc(/C=C/C(=O)N2CCCN(C(=O)/C=C/c3ccc(C)cc3)CC2)cc1	.	.	6.1	108.8	i	0.97	-1.8
Cc1ccc(Nc2nc3c(c(=O)[nH]2)CCCC3)cc1	18.8	67.8	-6.0	106.9	i	1.05	-1.4
CCN(CC)CCn1c(NC(=O)c2ccc(Cl)cc2)nc2ccccc21	73.3	69.5	-5.0	101.1	i	0.81	-1.2
O=C(c1ccc(Cl)cc1)c1ccccc1C(=O)N1CCOCC1	0.0	138.5	-2.2	100.4	i	0.9	-2.2
Cc1cnc(C)c(N2CCN(Cc3cn(C)nc3-c3cccc(Cl)c3)CC2)n1	21.7	200.0	9.2	101.2	i	1.03	.
CCOC(=O)C1=C(C)N(c2ccccc2)C(=O)/C1=C\c1ccc(O)c(OC)c1	.	.	.	103.2	i	1.01	.
CSCCCNC(=S)Nc1ccc(N2CCOCC2)cc1N1CCOCC1	-21.4	100.8	-0.3	102.4	i	0.93	.
CCc1ccc(OCC(=O)O/N=C(\N)c2cccnc2)cc1	.	.	.	105.5	i	0.99	.
O=C1NC(c2ccncc2)Nc2sc3c(c21)CCCC3 (centres undefined)	.	.	8.2	105.9	i	0.98	-2.7
O=C(OCCC1Oc2cccnc2NC1=O)c1ccc(Cl)cc1 (centres undefined)	.	.	-3.5	98.6	i	0.97	.
CCc1ccc(N2CC(C(=O)OC)CC2=O)cc1 (centres undefined)	.	.	-6.7	101.9	i	0.93	.
Cc1cc([N+](=O)[O-])nn1CCC(=O)NC1CCCCCC1	-63.0	90.5	0.6	107.4	i	0.91	-2.3
Cc1ccc(C)c(C(=O)CN2C(=O)c3ccccc3S2(=O)=O)c1	-2.7	88.6	-11.4	98.2	.	.	-2.9
O=C(c1cc2c(s1)CCCC2)N1CCN(S(=O)(=O)c2ccccc2C(F)(F)F)CC1	0.0	80.0	-9.3	135.0	i	0.94	-1.6
Cc1cc(NC(=O)CSc2nnc(-c3ccc(Br)o3)n2Cc2ccccc2)no1	-43.6	163.9	-6.0	100.1	i	0.95	-1.6
C=CCNc1scc(-c2ccccc2)[n+]1CC=C	.	.	-0.8	100.5	i	0.89	.
C#CCOCCOCCOCCNc1nc(N2CCN(C(=O)[C@H]([C@@H](C)CC)n3cc([C@@H](N)CC(C)C)nn3)CC2)nc(N2CCN(C(=O)[C@H](Cc3ccc(O)cc3)n3cc([C@@H](N)C(C)CC)nn3)CC2)n1 (some centres undefined)	.	.	-3.1	104.4	i	0.89	.
Clc1cccc(-c2ccc(/C=N/n3cnnc3)o2)c1Cl	50.0	64.5	-0.5	31.2	i	0.87	1.1
O=C(CC12CC3CC(CC(C3)C1)C2)NCC(=O)N1CCc2ccccc2C1	-23.3	86.1	-5.3	70.6	i	0.87	-1.0
Cc1nn(-c2ccc(F)cc2)c2sc(C(=O)N3CCCCCC3)cc12	13.5	106.2	-5.0	97.5	i	0.97	1.5
CCCSC1=C(C#N)C2(CCCCC2)C(C#N)=C(N)N1	-42.9	63.9	-2.3	107.2	i	0.91	.
N=c1sccn1CC(=O)Nc1cccc(S(N)(=O)=O)c1	.	.	.	99.3	i	1.3	.
O=c1c2sc(-c3ccccc3)cc2nc2n1CCC2	56.2	133.7	-3.2	82.9	i	0.69	-1.6
Clc1ccccc1CONc1ncnc2nonc12	-17.2	100.0	-2.0	103.8	i	1.04	-1.1
CCCn1c(SCC(=O)Nc2nc3c(s2)CCCC3)nc2c1c(=O)n(C)c(=O)n2C	.	.	12.9	106.1	i	0.84	-0.7
C#CCOC(=O)C[N+](C)(C)CC=C	.	.	.	102.3	i	1.07	.
O=C(Cc1cccs1)N1CCN=C1SCc1ccccc1F	.	.	-2.6	102.7	i	0.96	.
CC(=O)c1ccc(OCCCC(=O)NC2=NCCS2)cc1	-35.5	129.0	-3.2	97.7	i	0.77	-1.2
CCOC(=O)c1ccccc1Nc1cc(C)nc2nc(C)nn12	20.0	104.2	-2.0	103.3	i	0.9	-0.5
COC(=O)/C=C/c1sc2nc(C)cc(C)c2c1N=CN(C)C	-53.9	116.8	1.8	94.3	i	1.03	.
O=C(N[C@@H](Cc1ccccc1)C(=O)NC1CCCCC1)c1ccco1	-1.4	53.2	2.7	114.8	.	.	-1.8
CC(C)(C)NS(=O)(=O)c1ccc(CCC(=O)N2CCCC2)cc1	-77.8	39.0	-2.2	111.4	i	0.94	.
Cc1ccc(S(=O)(=O)NCCCCCC(=O)NC(C)(C)CO)cc1	.	.	1.2	101.2	i	1.04	-0.2
Cc1ccc(C(=O)O)cc1Nc1ncnc2sc3c(c12)CCC3	.	.	.	104.1	i	0.84	.
Cc1ccc(C(=O)N2c3ccccc3N(Cc3ccccc3)C(=O)C2(C)C)cc1	22.9	94.0	8.2	106.0	i	0.83	-2.0
CCOC(=O)c1sc(Nc2nc3c(OC)cccc3s2)nc1C	.	.	-5.6	114.1	i	0.82	46.0*
Nc1nc(Sc2ncccc2[N+](=O)[O-])n[nH]1	.	.	.	100.1	i	0.92	.
CCN(CC)CCN(Cc1cc2cc3c(cc2[nH]c1=O)OCO3)C(=S)NCC1CCCO1 (centres undefined)	.	.	5.1	125.6	i	1.06	.
Cc1c(Cl)cccc1NC(=O)N1CCCC1	.	.	-0.6	103.7	i	1.04	.
CCC1CCC(C(=O)NC(CCSC)C(=O)NCCN(CC(C)C)CC(C)C)CC1 (centres undefined)	-193.3	42.5	-0.1	103.5	i	0.82	.
Cc1[nH]n(-c2ccccc2)c(=O)c1C(=O)c1ccc(Cl)cc1	.	.	.	101.0	i	1.03	.
Cc1ccc2c(c1)C(O)(C1COC(C)(C)CC1=O)C(=O)N2C (centres undefined)	.	.	10.6	100.5	i	1.01	.
NNC(=O)c1sccc1OCc1ccc(F)cc1	-25.0	150.7	-15.0	109.0	i	0.69	.
COc1ccc(CNC(=O)c2ccc(=O)oc2)cc1OC	.	.	-10.6	100.2	i	0.9	-0.6
O=C1CC(c2ccc(F)c(Br)c2)C2=C(CCCC2=O)N1 (centres undefined)	-15.6	149.4	3.2	100.5	i	0.69	-1.9
COc1cc2ncnc(NCc3ccccc3C)c2cc1OC	16.7	105.1	-1.8	99.4	i	0.94	-1.9
Cc1cc(=O)c2c(C)nn(-c3ccccc3)c2[nH]1	.	.	-4.2	93.1	i	0.9	-0.4
Cc1nn(C)cc1NC(=O)c1ccc(Br)o1	0.0	109.9	-3.9	29.2	i	0.99	-0.5
COCCNS(=O)(=O)c1ccc(-c2ccc(C)cc2)cc1	7.1	121.7	-1.7	99.5	i	1.13	0.1
Cc1ccc(C(=O)N(NC2=NS(=O)(=O)c3ccccc32)S(=O)(=O)c2ccc(C)cc2)cc1	2.6	116.8	-7.4	103.3	i	0.86	-2.5
O=C(NCc1cccnc1)c1noc2c1CCCCC2	.	.	-5.3	101.5	i	0.95	-1.1
Cc1ccc(C(O)c2nc3ccccc3n2C(C)C)cc1 (centres undefined)	4.5	141.9	-1.0	101.5	.	.	-2.3
O=C(Cn1nnc2ccccc2c1=O)NCCc1ccc(F)cc1	23.1	121.9	3.7	107.1	i	0.9	-2.0
CCN(C(=O)CSc1nc2nc(C)cc(C)n2n1)C1CCS(=O)(=O)C1 (centres undefined)	-14.3	137.1	3.8	121.9	i	0.99	.
CCOC(=O)c1nc(Nc2ccc(N3CCC(C)CC3)cc2)c2ccccc2n1	.	.	0.0	88.9	.	.	.
COc1ccc(OCC(O)CN(CCO)CC(O)Cn2ccc3ccccc32)cc1 (centres undefined)	-44.0	98.7	-7.0	96.0	i	0.88	-1.0
Cc1ccccc1C(=O)NC(=S)Nc1sc2c(c1C#N)CCCC2	29.6	83.2	-1.8	104.9	i	0.9	-2.1
CCOC(=O)c1sc(=S)n(-c2ccccc2Cl)c1C	.	.	.	101.8	i	1.04	.
COc1ccc(OC)c(CN(CCN2CCOCC2)S(=O)(=O)c2ccc(NC(C)=O)cc2)c1	.	.	.	100.5	i	0.98	.
O=C(NC1CCN(C(=O)N2c3ccccc3Sc3ccccc32)CC1)c1ccco1	-17.9	118.3	11.9	99.2	i	0.9	-0.3
Further entries
SMILES	INS promoter inh	INS promoter inh cell count	PKD1 kinase inh	RGS16-Gao HTS	HSV replic up	HSV replic up primary fold	GALR2 ag
COc1ccc(NC(=O)Nc2ccc(C)cc2Br)c(OC)c1	.	.	-8.1	102.1	i	0.84	.
CCOC(=O)c1ccc2c(c1)nc(SCC(=O)c1cc3ccccc3o1)n2CC	5.6	39.1	-7.1	97.9	i	0.95	-3.5
CC(=O)c1ccc2cccc3c2c1N=CN3C	-130.0	116.3	-7.5	87.2	.	.	-1.0
O=C(CSc1nnc(-c2ccccc2)n1CC1CCCO1)N1CCCC1 (centres undefined)	8.3	123.7	-1.4	102.0	i	1.02	.
C=CCn1c(N)cc(=O)nc1SCC(=O)Nc1ccccc1	-21.4	76.5	-13.1	104.2	i	1.02	-3.7
O=P(CCCCCCCCCP(=O)(c1ccccc1)c1ccccc1)(c1ccccc1)c1ccccc1	-21.6	98.3	-1.4	96.6	i	0.9	0.6
CS(=O)(=O)N(CCc1ccccc1)CC(=O)N1CCN(Cc2ccc3c(c2)OCO3)CC1	-168.8	138.5	-5.5	100.4	i	0.96	-0.8
COCC1CCN(Cc2nc(Cc3ccccc3Cl)no2)CC1	.	.	-7.9	100.7	i	0.9	.
COc1ccc(C(=O)N2CCC(n3c(C)nc4cc(F)ccc43)CC2)cc1OC	.	.	0.5	104.1	i	0.92	-1.2

Entries of single compounds as entered above. Order of values: INS promoter inh, INS promoter inh cell count, PKD1 kinase inh, RGS16-Gao HTS, HSV replic up, HSV replic up primary fold, GALR2 ag
Listed for CCOC(=O)c1ccc2c(c1)nc(SCC(=O)c1cc3ccccc3o1)n2CC → 5.6, 39.1, -7.1, 97.9, i, 0.95, -3.5
Listed for O=C(CSc1nnc(-c2ccccc2)n1CC1CCCO1)N1CCCC1 (centres undefined) → 8.3, 123.7, -1.4, 102.0, i, 1.02, .
Listed for COc1ccc(C(=O)N2CCC(n3c(C)nc4cc(F)ccc43)CC2)cc1OC → ., ., 0.5, 104.1, i, 0.92, -1.2
Listed for COCC1CCN(Cc2nc(Cc3ccccc3Cl)no2)CC1 → ., ., -7.9, 100.7, i, 0.9, .
Listed for CC(=O)c1ccc2cccc3c2c1N=CN3C → -130.0, 116.3, -7.5, 87.2, ., ., -1.0
